CBX7 AlphaScr: CBX7 chromodomain binding inhibitors, primary screen, biochemical, AlphaScreen; Chromobox protein homolog 7 (Homo sapiens), O95931; AlphaScreen His6-CBX7 / biotin-H3K27me3 peptide binding; stronger effect = lower value; normalised signal (fraction of DMSO) (concentration not given with the values); 66,000 compounds, 1.1% hits; AID 1224903, 2016; in the data active = normalised signal below about 0.5;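 also: 100 nL library stock added to about 20 µL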
Target sequence (O95931 whole entry, looked up): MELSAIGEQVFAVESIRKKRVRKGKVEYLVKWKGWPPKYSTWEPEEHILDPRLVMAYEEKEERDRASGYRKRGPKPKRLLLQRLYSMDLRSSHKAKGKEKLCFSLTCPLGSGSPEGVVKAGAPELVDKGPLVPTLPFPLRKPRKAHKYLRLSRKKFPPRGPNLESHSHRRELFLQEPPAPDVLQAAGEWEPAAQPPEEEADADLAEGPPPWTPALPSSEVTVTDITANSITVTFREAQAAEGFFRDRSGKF
CBX7 AlphaScr z-score: recorded beside CBX7 AlphaScr, whose call it bears; z-score; measured here: z-score of CBX7 signal; some inactives read as strong as hits; reference of the scale not given here;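 same signal on another scale; lower means less binding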
* = called active by the depositor; & = joins results of further samples. An excerpt; rates above refer to the full screens.

The first 13 records (preview)
SMILES | CBX7 AlphaScr | CBX7 AlphaScr z-score
CCOC(=O)c1cccc(NC(=O)[C@H](CCS(C)(=O)=O)N2Cc3ccccc3C2=O)c1 | 0.949 | -1.16
COc1cccc(-n2ccnc2SCC(=O)NCc2ccc3c(c2)OCO3)c1 | 0.985 | -0.275
COCCNC(=O)Cn1nc(-c2ccc(Cl)cc2)ccc1=O | 1.03 | 1.35
COc1ccc2nc(C)cc(Nc3ccc(Br)cc3)c2c1 | 0.948 | -1.01
CCC1=Nc2cc(C(=O)NCCCOC)ccc2Sc2ccccc21 | 0.865 | -1.55
COc1cccc(-c2cc(C(F)(F)F)n3nc(C)cc3n2)c1 | 1.33 | 8.81
Cc1nn(Cc2ccccc2)c(C)c1NC(=O)c1noc2c1CC(C(C)(C)C)CC2 (configuration not stated) | 0.89 | -2.46
COc1ccc(C2(CNC(=O)c3ccc(Br)cc3)CCOCC2)cc1 | 1.05 | 1.73
O=C(Nc1ccc2c(c1)OCCO2)C1CCN(S(=O)(=O)c2cnc[nH]2)CC1 | 1.07 | 0.806
Cc1ccc(NS(=O)(=O)c2ccc3[nH]c(=O)c(=O)[nH]c3c2)cc1Cl | 0.809 | -0.252
CN1CCN(C(=O)c2ccc(-c3nn(C)c(=O)c4ccccc34)cc2)CC1 | 1.03 | 1.19
Cc1ccc(C(CCN2CCOCC2)c2ccccc2)c(O)c1 (configuration not stated) | 0.879 | -0.279
Cc1onc(-c2ccccc2Cl)c1C(=O)NCCn1ccc2ccccc21 | 1 | 0.0954

Main list, previewed entries included:
SMILES | CBX7 AlphaScr | CBX7 AlphaScr z-score
CCOC(=O)c1cccc(NC(=O)[C@H](CCS(C)(=O)=O)N2Cc3ccccc3C2=O)c1 | 0.949 | -1.16
COc1cccc(-n2ccnc2SCC(=O)NCc2ccc3c(c2)OCO3)c1 | 0.985 | -0.275
COCCNC(=O)Cn1nc(-c2ccc(Cl)cc2)ccc1=O | 1.03 | 1.35
COc1ccc2nc(C)cc(Nc3ccc(Br)cc3)c2c1 | 0.948 | -1.01
CCC1=Nc2cc(C(=O)NCCCOC)ccc2Sc2ccccc21 | 0.865 | -1.55
COc1cccc(-c2cc(C(F)(F)F)n3nc(C)cc3n2)c1 | 1.33 | 8.81
Cc1nn(Cc2ccccc2)c(C)c1NC(=O)c1noc2c1CC(C(C)(C)C)CC2 (configuration not stated) | 0.89 | -2.46
COc1ccc(C2(CNC(=O)c3ccc(Br)cc3)CCOCC2)cc1 | 1.05 | 1.73
O=C(Nc1ccc2c(c1)OCCO2)C1CCN(S(=O)(=O)c2cnc[nH]2)CC1 | 1.07 | 0.806
Cc1ccc(NS(=O)(=O)c2ccc3[nH]c(=O)c(=O)[nH]c3c2)cc1Cl | 0.809 | -0.252
CN1CCN(C(=O)c2ccc(-c3nn(C)c(=O)c4ccccc34)cc2)CC1 | 1.03 | 1.19
Cc1ccc(C(CCN2CCOCC2)c2ccccc2)c(O)c1 (configuration not stated) | 0.879 | -0.279
Cc1onc(-c2ccccc2Cl)c1C(=O)NCCn1ccc2ccccc21 | 1 | 0.0954
CCc1ccc(NC(=O)C(C)N2C(=O)c3ccccc3C2=O)cc1 (configuration not stated) | 0.979 | -0.573
CCCCN(C)C(=O)c1cc(-c2ccccn2)nc2ccc(S(=O)(=O)N3CCC(C)CC3)cc12 | 1.01 | 0.258
O=C(CSc1ccc2nnc(-c3ccccc3)n2n1)Nc1cccc(F)c1 | 0.893 | -1.28
O=C(NCCCn1ccnc1)c1ccccc1C(=O)c1ccccc1 | 0.972 | -0.548
CCOC(=O)c1nnn(-c2nonc2N)c1CN1CCC(C(=O)OCC)CC1 | 0.965 | -0.456
COCCNC(=O)CC1Oc2ccccc2NC1=O (configuration not stated) | 1.07 | 1.99
CCOc1cc(-c2ccc(O)cc2)cc(=O)c2c(C)oc(C)c12 | 0.874 | -0.257
CCOc1ccccc1NS(=O)(=O)c1ccc2c(c1)CCN2C(=O)C1CC1 | 0.963 | -0.426
Cc1ccn2cc(-c3ccc(S(=O)(=O)N4CCCCCC4)cc3)nc2c1 | 1.06 | 0.213
CC(=O)Oc1ccc(C2CC(=O)Nc3cc4c(cc32)OCO4)cc1 (configuration not stated) | 0.988 | -0.494
CCCCCCCC1C(=O)CC(c2ccccc2)NC1c1ccccc1 (configuration not stated) | 1.73 | 3.41
FC(F)(F)c1cc(-c2ccc(Cl)cc2)nc(N2CCCCC2)n1 | 1.9 | 36.2
Cn1cc(C(=O)Nc2ccc(F)cc2F)c2ccccc2c1=O | 1.07 | 0.0928
COc1ccc(-c2cc(C(F)(F)F)nc(NC(C)c3ccccc3)n2)cc1OC (configuration not stated) | 1.08 | 3.72
COc1ccc(C2C(=O)N(C3CCCCCC3)CC(=O)N2Cc2ccccc2OC)cc1 (configuration not stated) | 0.818 | -0.736
CC(C)CN(CC(C)C)S(=O)(=O)c1ccc2c(c1)CCN2C(=O)C1CC1 | 1.43 | 1.74
COc1ccc(-n2cnc3cc(C(=O)NCCC4=CCCCC4)ccc32)cc1 | 0.797 | -2.55
COc1cccc(C2CC(C(F)(F)F)n3ncc(C(=O)NCCc4ccccc4)c3N2)c1 (configuration not stated) | 0.969 | -0.893
Cc1cccc(C)c1NC(=O)c1cc2sccc2n1Cc1ccc(F)cc1 | 1.01 | 0.234
O=C(Nc1cccnc1)c1cc2c(s1)-c1ccccc1OC2 | 1.18 | 4.42
CCC(=O)NCCc1nc2ccccc2n1Cc1ccccc1F | 1.12 | 1.66
CCc1cc2c(=O)c(-c3nc4ccccc4s3)coc2c(CN2CCOCC2)c1O | 1.11 | 3.1
CC1(C)CC(=O)N(CC(=O)N2CCCCCC2)c2ccccc2S1 | 1.04 | 1.24
O=C(NCCc1c[nH]c2ccccc12)c1csc2c1CCCCC2 | 1.02 | 0.547
Cc1ccc(Cl)cc1N1CCN(CCNC(=O)Nc2ccccc2)CC1 | 1.21 | 1.66
COc1cccc(-c2cc(C(=O)Nc3c(C)nn(Cc4ccc(F)cc4)c3C)no2)c1 | 1.03 | 0.709
CC1CCC(NC(=O)C2(C)CCC(=O)N2CCc2ccc(Cl)cc2)CC1 (configuration not stated) | 1.12 | 0.914
CCOC(=O)c1nnn(-c2nonc2N)c1CNC(C)C | 1.03 | 0.888
Cc1cc(C(=O)Nc2ccn(Cc3ccccc3C)n2)on1 | 1.04 | 0.757
Cc1ccccc1NC(=O)C1(N(C(=O)Cc2nc(N)n[nH]2)c2ccccc2)CCCCC1 | 0.738 | -4.77
CCC(C(=O)NCCc1cc2ccc(C)c(C)c2[nH]c1=O)c1ccccc1 (configuration not stated) | 1.13 | 0.818
CCCc1ccc(Oc2c(-c3ccc(O)cc3O)n[nH]c2C)cc1 | 0.797 | -3.15
COc1ccc(CN2C(=O)c3ccccc3C2C(=O)NC2CCCCC2)cc1 (configuration not stated) | 1.03 | 1.33
Cc1cccc(C)c1NC(=O)c1cc2c(C)nn(-c3ccccc3)c2s1 | 1.15 | 2.48
O=C(CSc1nnc(-c2ccccc2)o1)N1CCOCC1 | 0.959 | -0.0941
Clc1ccc(Cl)c(Nc2nc(-c3ccc(-c4ccccc4)cc3)cs2)c1 | 0.907 | -1.49
COc1ccc(OC)c(NC(=O)C(CCS(C)(=O)=O)NC(C)=O)c1 (configuration not stated) | 1.02 | 0.744
CC(Nc1nc2nonc2nc1N1CCCC1)c1ccccc1 (configuration not stated) | 0.991 | -0.446
COc1ccc(CNC(=O)CN(c2ccc(C(C)C)cc2)S(=O)(=O)c2c(C)nn(C)c2C)cc1 | 0.989 | -0.156
O=C(NCCN1CCOCC1)c1ccc2c(c1)N(Cc1ccc(F)cc1)C(=O)c1ccccc1S2(=O)=O | 1.11 | 1.94
O=C(NCc1ccc(F)cc1)c1csc2c1CCCCC2 | 1.09 | 2.28
CCCCNc1c(NC2CCN(C(=O)OCC)CC2)c(=O)c1=O | 1.01 | 0.0815
O=C(Nc1ccc(Cl)cc1)C1CCN(S(=O)(=O)c2ccccc2)CC1 | 0.934 | -1.24
CN(CCCNC(=O)C1CC(=O)N(c2ccc(F)c(Cl)c2)C1)Cc1ccccc1 (configuration not stated) | 1.05 | 2.33
Cc1oc(-c2ccc(Cl)cc2)nc1CN1CCC(C(=O)N(C)Cc2ccccc2)CC1 | 0.983 | -0.246
CCOc1ccc(C(=O)Nc2cccc(-c3nc4cc(C)ccc4o3)c2C)cc1 | 1.04 | 0.918
O=C(CSc1nnc(CNC(=O)c2c(F)cccc2Cl)o1)NC1CCCCC1 | 0.932 | -1.11

(list continues)
SMILES | CBX7 AlphaScr | CBX7 AlphaScr z-score
Cc1ccc(CNC(=O)c2oc3ccc(S(=O)(=O)N4CCCC4)cc3c2C)cc1 | 1 | 0.131
CCC(C)NC(=O)c1ccc2nc(N3CCC(C)CC3)sc2c1 (configuration not stated) | 1.04 | 0.798
CCOC(=O)c1c(CS(=O)(=O)c2ccccc2)n(C)c2cc(Br)c(O)cc12 | 1.09 | 0.847
O=C(Nc1nnc(CCS(=O)(=O)c2ccc(Br)cc2)s1)c1ccccc1Cl | 0.974 | -0.113
CCC(=O)N1CCc2cc(S(=O)(=O)NC(CC(C)C)C(=O)Nc3ccc(C(C)C)cc3)ccc21 (configuration not stated) | 1.02 | 0.6
O=C(Cn1nc(Cc2ccncc2)c2ccccc2c1=O)Nc1ccc2c(c1)OCCO2 | 1.04 | 1.19
COc1ccc(CNC(=O)C2CCN(S(C)(=O)=O)CC2)cc1 | 1 | 0.163
CC(C)(C)OC(=O)N1C[C@@H](Sc2nc3ccccc3[nH]2)C[C@H]1C(=O)O | 1.24 | 2.71
COc1ccccc1CNC(=O)CCc1nc(-c2ccccc2F)no1 | 1.03 | 0.938
CCc1ccccc1NC(=O)Cc1cn(C)c2ccccc12 | 0.99 | -0.427
Cc1nc(NC(=O)c2ccccc2)sc1-c1csc(Nc2cccc(C(=O)O)c2)n1 | 0.913&0.935 | -1.11&-0.0735
COc1ccc(Nc2ncc(C(=O)N3CCN(c4ccccc4)CC3)c3ccccc23)cc1 | 0.796 | -3.43
O=C(Nc1ccccn1)NC1CCS(=O)(=O)C1 (configuration not stated) | 1.17 | 1.82
Cc1ccc(C(=O)Nc2ccc(-c3nc4cc(C)ccc4o3)cc2)cc1 | 0.965 | -0.361
Fc1ccccc1C1CC(c2ccc(Br)cc2)Nc2ncnn21 (configuration not stated) | 1.01 | 0.468
Cc1ccccc1-c1nc(CN2CCC(C(=O)NCCc3ccc(Cl)cc3)CC2)c(C)o1 | 0.979 | -0.218
Cc1ccc(S(=O)(=O)Nc2nc3ccccc3nc2Nc2cc(C)ccc2C)cc1 | 0.98 | -0.554
CCOc1ccc(NC(=O)CSc2nnc(CNC(=O)c3c(F)cccc3Cl)o2)cc1 | 0.908 | -1.5
CCOC(=O)c1c(C)n(-c2ccc(C)cc2)c2ccc(OCC(O)Cn3nc(C)cc3C)cc12 (configuration not stated) | 0.836 | -3.36
Cc1c(Cl)cccc1NC(=O)Nc1cccs1 | 1.05 | 2.21
Cc1cccc(-n2c(Cc3cc(=O)[nH]c(=O)[nH]3)nnc2SCC(=O)NCc2ccccc2)c1 | 1.09 | 0.389
CC1CCCCC1NC(=O)C1CCN(C(=O)c2cc3sccc3n2Cc2ccc(Cl)cc2)CC1 (configuration not stated) | 1.07 | 2.66
COc1ccccc1-c1c(C)nn2c(NC3CCN(Cc4ccccc4)CC3)cc(C)nc12 | 0.909 | -2.27
O=C(NC1CCCCC1)C1c2ccccc2C(=O)N1Cc1ccc2c(c1)OCO2 (configuration not stated) | 0.931 | -0.744
CC(C)c1ccc(Nc2cc(C(=O)NCc3ccc4c(c3)OCO4)c3ccccc3n2)cc1 | 1.08 | 0.0785
O=C(CSc1nccn1-c1ccc(F)cc1)Nc1ccc(F)cc1 | 1.16 | 1.27
CCc1ccc(NC(=O)c2ccc(CNc3c(NC4CCCC4)c(=O)c3=O)cc2)cc1 | 1.3 | 0.692
CCC(C(=O)NCCN(CC)c1ccccc1)N1C(=O)COc2ccccc21 (configuration not stated) | 0.949 | -2.53
Cc1cc(N2CC(C)CC(C)C2)nc2ccc(NC(=O)CCC(=O)NCc3ccc(F)cc3)cc12 (configuration not stated) | 1.04 | 1.94
CCOc1ccc(-n2cc(C(=O)Nc3ccc4c(c3)OCO4)c3cc(OC)c(OC)cc3c2=O)cc1 | 0.908 | -0.932
O=c1c2nnn(Cc3ccc(F)cc3)c2ncn1Cc1cccc(Cl)c1 | 1.08 | 1.49
O=C(NC1CCCCC1)C1CCN(c2nc3ccccc3o2)CC1 | 1.06 | 2.25
CN(Cc1ccccc1)C(=O)c1nn2c(C(F)(F)F)cc(-c3ccc(Cl)cc3)nc2c1Cl | 1.04 | 0.519
COc1ccccc1N1C(=O)c2ccc(C(=O)Nc3ccc(O)cc3C)cc2C1=O | 1.01 | 0.257
Cc1nnc(NC(=O)C2CCCN(C(=O)c3cnn(-c4ccccc4)c3-n3cccc3)C2)nc1C (configuration not stated) | 0.903 | -0.737
Cc1cc(C)cc(N(CC(=O)Nc2ccc(Br)cc2)S(=O)(=O)c2c(C)noc2C)c1 | 0.938 | -0.514
CCN1CCN(c2cc(C)c3cc(NC(=O)c4cccnc4)ccc3n2)CC1 | 1.04 | 0.28
COc1cccc(NC(=O)CNC(=O)c2cn(-c3ccccc3OC)c(=O)c3ccccc23)c1 | 0.916 | -1.28
COc1ccccc1Nc1nc(-c2ccc(F)cc2)cs1 | 1.03&0.959 | 0.846&-1.52
CC(=O)N1CCc2cc(S(=O)(=O)NC(C(=O)N3CCC(C)CC3)C(C)C)ccc21 (configuration not stated) | 0.864 | -2.53
O=C(COc1ccc(Cl)cc1)Nc1c2c(nn1-c1ccc(F)cc1)CS(=O)(=O)C2 | 1.13 | 1.51
COc1ccc(-n2nnc3c(=O)n(Cc4ccccc4Cl)cnc32)cc1 | 1.09 | 2.12
COC(=O)c1c(NC(=O)c2ccc(OC)c(OC)c2)sc2c1CCC(C)C2 (configuration not stated) | 1.22 | 3.36
O=C(Nc1ccc2oc(-c3ccccc3)nc2c1)C1CCCCC1 | 0.839 | -2.51

Screens (PubChem)
